HPGD block: qHTS Assay for Inhibitors of HPGD (15-Hydroxyprostaglandin Dehydrogenase); 15-hydroxyprostaglandin dehydrogenase [NAD(+)] (Homo sapiens), P15428; 4.3% of 150,000 active; Potency, µM, for the others: top-dose activity change, negative = inhibition, most hits filed as inhibitors; purified HPGD, NADH fluorescence kinetic, PGE2 substrate; active = well fitted inhibition curve with a large enough effect (not every such curve was filed as active); inconclusive = small, poorly fitted or top-dose-only effect, or another doubt; inactive = no such curve, though single readings can be large or run the other way;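 also: top concentration of the series not given in the record; plate controls included wells without enzyme; inactives centre near -10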
Target sequence (P15428 whole entry, looked up): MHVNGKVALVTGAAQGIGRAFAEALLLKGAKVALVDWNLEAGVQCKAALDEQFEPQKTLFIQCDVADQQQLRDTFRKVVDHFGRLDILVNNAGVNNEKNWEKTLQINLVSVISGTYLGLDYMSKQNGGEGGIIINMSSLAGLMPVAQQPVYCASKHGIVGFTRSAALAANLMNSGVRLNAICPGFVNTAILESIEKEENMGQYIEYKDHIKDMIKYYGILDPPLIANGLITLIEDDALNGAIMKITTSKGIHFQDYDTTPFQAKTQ
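20 nM HPGD preincubated 15 min at room temperature with compound in 50 mM Tris-HCl pH 8, 0.01% Tween 20. Started with 1 mM NAD+ and 30 uM prostaglandin E2; NADH fluorescence (360/450 nm) read 5 times over 30-s intervals, last minus first.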
* = called active by the depositor; ? = inconclusive. % is scaled to controls: 0 for no effect and ±100 for the full control effect; potency is read from the fitted curve at half-maximal effect. A portion of the library. The share of hits here may be higher or lower than overall.

Start of the listing, in advance:
HPGD block | SMILES
-12% | Cc1cc(N2C(=O)CC(C(C)c3ccccc3)C2=O)no1 (centres undefined)
6% | COc1cc(S(=O)(=O)NCCCN2CCOCC2)ccc1Cl
-8% | Cc1c(C(=O)NCc2ccccn2)oc2ccccc12
-8% | Cc1cc(NC(=O)c2cccc(S(=O)(=O)N3CCCCCC3)c2)n(-c2ccccn2)n1
-10% | CC(C)[C@H](NC(=O)NCCc1ccccc1)C(=O)O

The listing, from the first entry:
HPGD block | SMILES
-12% | Cc1cc(N2C(=O)CC(C(C)c3ccccc3)C2=O)no1 (centres undefined)
6% | COc1cc(S(=O)(=O)NCCCN2CCOCC2)ccc1Cl
-8% | Cc1c(C(=O)NCc2ccccn2)oc2ccccc12
-8% | Cc1cc(NC(=O)c2cccc(S(=O)(=O)N3CCCCCC3)c2)n(-c2ccccn2)n1
-10% | CC(C)[C@H](NC(=O)NCCc1ccccc1)C(=O)O
-7% | COc1ccc(NC(=O)Cc2nc3ccccc3[nH]2)cc1
-9% | CCc1nc2ccccc2c(C(=O)O)c1C
-23% | Cc1ccc(-c2nc(CS(=O)CC(=O)NCc3ccccn3)c(C)o2)cc1 (centres undefined)
-1% | C=CCOc1ccccc1CNCCCN1CCOCC1
-8% | COC(=O)c1ccc(CSc2nc3cc(Cl)ccc3s2)o1
-9% | CCCOC(=O)c1ccc(Nc2cc(C)nc3ncnn23)cc1
-6% | COc1ccc(CC(=O)NNC(=O)c2cccs2)cc1
-7% | Cc1nc2ccccc2c2c1C(=O)N(CCC1=CCCCC1)C2=O
-17% | CNC(=S)N/N=C(\C)c1ccc(C)c(C)c1
? | CCCCC1OC23CCCCC2C(C#N)(C#N)C1(C#N)C(=N)O3 (centres undefined)
-17% | Cc1cc(N/N=C(/CCC(=O)O)C(=O)O)nc2ccccc12
-1% | CC(C)CCOP(=O)(c1ccccc1)c1ccccc1
-5% | COCCn1c(C)cc(C(=O)COc2nc3ccccc3nc2C)c1C
-11% | COc1ccccc1C(=O)NCC(=O)OCc1csc(-c2ccccc2)n1
-9% | CCN(CC)C(=O)NC(c1ccc(C)c(F)c1)C(Cl)(Cl)Cl (centres undefined)
? | Fc1cccc(Nc2nc(-c3ccncc3)nc3ccccc23)c1
1% | CON1C(=O)C(=O)N(OC)C(C)(C)C1(C)C
-22% | CC1CN(S(=O)(=O)c2ccc(NC(=O)c3ccco3)cc2)CC(C)O1 (centres undefined)
1% | Cc1ccc(S(=O)(=O)N(CC(=O)N2CCOCC2)CC(=O)N2CCOCC2)cc1
-13% | Oc1cc2c(c(Cl)c1O)CCNCC2c1ccccc1 (centres undefined)
-9% | COc1ccc(/C=N/Nc2ncnc3sc4c(c23)CCCC4)cc1OC
-16% | COC(=O)C1=C(C)N(C)C(=O)NC1c1ccc(O)c(OC)c1 (centres undefined)
-7% | COC(=O)NC1CCC(CC2CCC(NC(=O)OC)CC2)CC1 (centres undefined)
-7% | CC1(C)CC(=O)C/C(=N\NC(=O)c2cccs2)C1
-7% | CNC(=O)CSc1nnnn1-c1ccc(C)cc1C
-17% | O=c1c2ccccc2nc(SCc2nnc(-c3ccccc3)o2)n1-c1ccccc1
-9% | COC(=O)c1ccccc1NC(=O)N1c2ccccc2Sc2ccccc21
-16% | COc1cccc(NC(=S)N2CCC(N(C)CC3CCCO3)CC2)c1 (centres undefined)
-4% | Cc1ccc2c(Cl)c(C(=O)N/N=C/c3cccn3C)sc2c1
? | CCOC(=O)c1cnc2sccn2c1=O
1% | CCCCC(=O)Nc1ccccc1C(=O)N1CCOCC1
-10% | C=CCN1C=C2C(=O)C(C)(OC(=O)CCC(=O)OC)C(=O)C(Br)=C2C=C1c1ccc(OC)cc1 (centres undefined)
-16% | COc1cc(OC)c2c(=O)c(O)c(-c3ccc(OC)c(OC)c3)oc2c1
-6% | COc1ccc(Cn2c(=O)c3c(nc(NCCO)n3C)n(C)c2=O)cc1
-20% | S=c1[nH]nc(COc2ccc3ccccc3c2)o1
-11% | Cc1cc(C(=O)N/N=C/c2c[nH]c3ccccc23)c(C)o1
-5% | CC1=C(/C=C/C(C)=C/C=C/C(C)=C/C=C/C=C(C)/C=C/C=C(C)/C=C/C(=O)[C@]2(C)CC(O)CC2(C)C)C(C)(C)CC(O)C1 (some centres undefined)
-15% | Cc1ccc(CNC(=O)c2sc3nc4c(c(C(F)(F)F)c3c2N)CCC4)cc1
-16% | CCSc1nnc(-c2ccncc2)n1Cc1ccccc1
-14% | N#C/C(=C\c1ccc(Oc2ccc(C(F)(F)F)cc2[N+](=O)[O-])cc1)c1nc2ccccc2[nH]1
-15% | C/C=C(\C)CN1CCN(c2cc(C)ccc2C)CC1
5% | CCOC(=O)N1CCN(C(=O)/C(=C/c2ccc(OC)cc2)NC(=O)c2ccccc2)CC1
-18% | Nn1c(SC/C=C/c2ccccc2)nnc1-c1ccccn1
-8% | O=c1c2ccccc2nc(CSc2nnnn2-c2ccccc2)n1-c1ccccc1
-24% | CCCn1c(/N=C/c2ccc3c(c2)OCO3)nc2ccccc21
-19% | CCOC(=O)CNC(=O)c1sc(NC(=O)c2cccc(F)c2)nc1C
-9% | O=C1OC(Nc2ccc(Br)cc2F)c2ccccc21 (centres undefined)
-1% | Cn1c(=O)c2c(nc(NCc3ccc4c(c3)OCO4)n2Cc2ccccc2)n(C)c1=O
-7% | CCOC(=O)C1CCCN(CC(=O)Nc2c(F)c(F)c(F)c(F)c2F)C1 (centres undefined)
-7% | Cc1cc(C)c(NC(=S)NC(=O)c2c(Cl)c(C)nn2C)c([N+](=O)[O-])c1
-16% | CCCCn1c(CCCNC(=O)CC)nc2ccccc21
? | COc1ccc(C2CC(C(F)(F)F)n3ncc(C(=O)NCC4CCCO4)c3N2)cc1OC (centres undefined)
-24% | CC1=C(C(=O)O)N2C(=O)[C@@H](NC(=O)C(N)c3ccccc3)[C@H]2SC1 (some centres undefined)
-18% | COC(=O)c1cccc(NC(=O)CN(c2ccc3c(c2)OCO3)S(C)(=O)=O)c1C
-12% | Cc1[nH]c2ccccc2c1C(c1ccccn1)N1CCC(C)CC1 (centres undefined)

Molecules from the list above that contain a COOH group:
HPGD block | SMILES
-10% | CC(C)[C@H](NC(=O)NCCc1ccccc1)C(=O)O
-9% | CCc1nc2ccccc2c(C(=O)O)c1C
-17% | Cc1cc(N/N=C(/CCC(=O)O)C(=O)O)nc2ccccc12
-24% | CC1=C(C(=O)O)N2C(=O)[C@@H](NC(=O)C(N)c3ccccc3)[C@H]2SC1 (some centres undefined)

Grouped by structure, the compounds so far with a nitro group on carbon (2)
HPGD block | SMILES
-14% | N#C/C(=C\c1ccc(Oc2ccc(C(F)(F)F)cc2[N+](=O)[O-])cc1)c1nc2ccccc2[nH]1
-7% | Cc1cc(C)c(NC(=S)NC(=O)c2c(Cl)c(C)nn2C)c([N+](=O)[O-])c1

(continued)
HPGD block | SMILES
-29% | CN(c1ccc(OCC(=O)Nc2ccc3[nH]c(=O)[nH]c3c2)cc1)S(=O)(=O)c1ccc(Cl)cc1
-19% | Cc1cc(C)cc(NC(=O)c2ccc(Cn3nc(C)c(Cl)c3C)o2)c1
? | Cc1ccccc1NC(=O)CSc1nc(N)c(C#N)c(-c2cccs2)c1C#N
-9% | Cc1ccc(C(=O)C2CCN(CC(=O)Nc3ccc(N(C)C)cc3)CC2)cc1
-15% | CCOCCCNC(=O)CN1C(=O)/C(=C\c2ccc(C)cc2)Sc2ccccc21
-4% | Cc1nn2c(N)c(C#N)cnc2c1-c1ccccc1
-15% | O=[N+]([O-])c1ccc(N2CCN(S(=O)(=O)Cc3ccccc3)CC2)cc1N1CCOCC1
-2% | COc1ccc(-n2nnnc2SCC(=O)NCCc2ccc(OC)c(OC)c2)cc1
? | CCCn1c(-c2ccc(F)cc2)nc2c(NCCCCN3CCCC3)nc(C)nc21
-5% | NC(=O)c1sc2nc3c(c(-c4cccnc4)c2c1N)CCC3
-8% | Cc1ccc(S(=O)(=O)N(C)CC(=O)Nc2nc3ccccc3s2)cc1
13µM* | O=C(Cc1coc2ccc3ccccc3c12)N1CCCC1
-11% | O=C(COC(=O)CNC(=O)c1sc2ccccc2c1Cl)Nc1c(Cl)cc(Cl)cc1Cl
-13% | CC(=O)c1ccc(NC(=O)CSc2nnc(-c3ccoc3C)n2Cc2ccccc2)cc1
-21% | CC(C)OCCCn1c(=S)[nH]c2ncccc2c1=O
? | Cc1cc(OCc2nn[nH]n2)c2c(C)c(Cc3ccccc3)c(=O)oc2c1
-4% | CCN(CC)Cc1cc(CC(C(N)=O)C(N)=O)ccc1OC
-8% | CCCCCCCC1=Cc2ccccc2C(CC(C)=O)N1C(=O)OC (centres undefined)
-19% | Cc1nc2ccccc2cc1C(=O)NCc1ccco1
-10% | c1cnc2c(-c3nccc4c3[nH]c3ccccc34)cccc2c1
-14% | Cc1ccc(C(=O)CS(C)(=O)=O)cc1
? | Cn1ncc([N+](=O)[O-])c1C(=O)Nc1nccs1
? | COc1ccc(-c2nc(SC)n(C)c(=O)c2C#N)cc1OC
-5% | NC(=S)N=Nc1c(O)n(Cc2ccc(Br)cc2)c2ccccc12
-4% | CSC1=NCCN1C(=O)c1cccc(Br)c1
? | COc1ccccc1OCCn1cc(C(=O)c2ccco2)c2ccccc21
-3% | O=C1Cn2c(nc3ccccc32)N1c1ccccc1F
-28% | c1cc2ccc3ccc(-n4cnnn4)c4ccc(c1)c2c34
? | CCOC(=O)c1cccc(Nc2ncnc3ccc(C)cc23)c1
-13% | Cc1sc(NC(=O)Cn2[nH]c(=O)c3ccccc3c2=O)nc1-c1ccccc1
-22% | N#Cc1nc(-c2ccco2)oc1N1CCN(c2ccccc2)CC1
-22% | COc1ccc(/C=C/C(=O)OCC(=O)Nc2ccc(OC)c(S(=O)(=O)N3CCCCC3)c2)cc1
-16% | O=C(O/N=C1\CCS(=O)(=O)c2sccc21)c1ccccc1
-10% | CCCCC[C@H](O)/C=C/[C@H]1C(=O)C[C@H](O)[C@@H]1C/C=C\CCCC(=O)O
-2% | CC(C)(C)C1CCc2onc(C(=O)Nc3cccnc3)c2C1 (centres undefined)
1% | COC(=O)C1=C(C)OC(N)=C(C#N)C1c1ccccc1F (centres undefined)
? | Cc1ccc2nc(-c3sc4nc(C)ccc4c3N)[nH]c2c1
-6% | COc1cc(CCC(=O)OCC(=O)Nc2cccc(S(N)(=O)=O)c2)cc(OC)c1OC
-4% | O=C(CN1CCC(n2nnc3cc(F)ccc32)CC1)NNC(=O)c1ccccc1
4% | Cn1c(=O)oc2cc(S(=O)(=O)N3CCN(Cc4ccc5c(c4)OCO5)CC3)ccc21
-15% | O=C(N/N=C/c1ccc(O)cc1)c1cc[n+](Cc2ccccc2)cc1
-9% | C[n+]1cccc(C(=O)NCC2CCCO2)c1 (centres undefined)
-22% | Cc1cc(=O)c2ccccc2[nH]1
1% | COc1cccc(C(=O)N2CCN(Cc3ccccc3[N+](=O)[O-])CC2)c1
-14% | CCOC(=O)c1cn(Cc2ccccc2)nn1
-1% | CSc1cccc(NC(=O)c2ccccc2N(C)S(C)(=O)=O)c1
-15% | CC1CCN(c2nc(-c3ccncc3)nc3ccccc23)CC1
-13% | C/C(=N/NC(=O)c1ccc(NC(=O)c2ccc(F)cc2)cc1)c1ccccc1
2% | CC(C)(C)c1cc(-c2ccco2)c(C#N)c(SCC#N)n1
1% | CCCC1(C(=O)O)NC(c2cccc(OC)c2O)C2C(=O)N(c3ccccc3)C(=O)C21 (centres undefined)
-3% | O=C(CNCC1CCCO1)Nc1ccccc1-n1cccc1 (centres undefined)
-7% | CC1(C)CSC(=NCc2ccccc2)N1C(=O)c1cccc([N+](=O)[O-])c1
-12% | CC(=O)c1cnn(-c2cc(Oc3ccc(F)cc3)ncn2)c1C
-4% | Cc1nnc(Nc2ccccc2)n(N)c1=O
2.2µM* | COc1cc(N=c2ssnc2Cl)cc(OC)c1OC
-7% | COCCNCC(=O)NC12CC3CC(CC(C3)C1)C2
-28% | CC1=C(C(=O)OCc2ccccc2)C(c2cccnc2)c2c(n(C)c(=O)n(C)c2=O)N1 (centres undefined)
-10% | Cc1cc(C)c(S(=O)(=O)Nc2cccc3nsnc23)c(C)c1
-6% | CCOC(=O)c1cnc(SC)nc1Oc1cccc(NC(=O)c2ccc(Cl)cc2)c1
-15% | CCC(=O)Nc1ccc(C(=O)CSc2nc3ccc(C)cc3[nH]2)cc1

Remaining list, next part
HPGD block | SMILES
-20% | CCn1c(=O)c(=O)n(CC)c2cc(S(=O)(=O)Nc3cccc(OC)c3)ccc21
-10% | Cc1ccc(C(=O)CCNc2ccc(Br)cc2)o1
-9% | CN1C2CCC1/C(=C\c1ccccc1)C(=O)/C2=C\c1ccccc1
? | Cc1ccc(-c2cc3nc(C)cc(NCc4ccco4)n3n2)cc1
? | N#C/C(=C\c1cn[nH]c1-c1ccc(Cl)cc1)C(=O)NCc1ccccc1
-4% | CC(O)c1nc2ccccc2n1CCOc1ccccc1 (centres undefined)
-20% | Cn1c(=O)[nH]c(=O)c2c1nc(Br)n2Cc1ccccc1Cl
? | Cc1c(O)ccc2c3c(c(=O)oc12)CCC(C)C3 (centres undefined)
-8% | C=CCN(C(=O)CCC(=O)O)C1CC(=O)N(c2ccc(OCCC)cc2)C1=O (centres undefined)
-25% | O=C(N/N=C/c1ccncc1)c1cccc([N+](=O)[O-])c1
-11% | Cc1ccc(CNS(=O)(=O)c2ccc(C(C)(C)C)cc2)n1C
-10% | C=CCn1c(SCc2nc3ccccc3[nH]2)nnc1-c1cccc(OC)c1
? | CC(=O)OC(C)(C)C1Cc2cc3ccc(=O)oc3cc2O1 (centres undefined)
2% | CC(C)(C)OC(=O)NNC(=S)NCc1ccc(Cl)cc1
-28% | COc1ccc(-c2cc(-c3ccc(OC)c(OC)c3)n[nH]2)c(O)c1

Source: PubChem BioAssay
